# From PubChem
# KCNQ2 pot: KCNQ2 (rat) channel potentiation; O88943; CHO-K1 KCNQ2, FluxOR thallium flux fluorescence; stronger effect = higher value; B-score at 10 µM; 310,000 tested, 0.54% active; AID 2239;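 active = fluorescence ratio B-score at least 3 SD of library B-scores, with initial fluorescence B-score within 3 SD, cut at about 5.3 in these data; same plate scores as AID 2156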;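 note: B-score of peak minus minimum over baseline fluorescence ratio after K+ and Tl+ stimulus; positive B-score means potentiation of KCNQ2 with more thallium influx and brighter signal; only the inactives scoring about 0 or higher are listed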
# Target sequence (O88943 whole entry, looked up): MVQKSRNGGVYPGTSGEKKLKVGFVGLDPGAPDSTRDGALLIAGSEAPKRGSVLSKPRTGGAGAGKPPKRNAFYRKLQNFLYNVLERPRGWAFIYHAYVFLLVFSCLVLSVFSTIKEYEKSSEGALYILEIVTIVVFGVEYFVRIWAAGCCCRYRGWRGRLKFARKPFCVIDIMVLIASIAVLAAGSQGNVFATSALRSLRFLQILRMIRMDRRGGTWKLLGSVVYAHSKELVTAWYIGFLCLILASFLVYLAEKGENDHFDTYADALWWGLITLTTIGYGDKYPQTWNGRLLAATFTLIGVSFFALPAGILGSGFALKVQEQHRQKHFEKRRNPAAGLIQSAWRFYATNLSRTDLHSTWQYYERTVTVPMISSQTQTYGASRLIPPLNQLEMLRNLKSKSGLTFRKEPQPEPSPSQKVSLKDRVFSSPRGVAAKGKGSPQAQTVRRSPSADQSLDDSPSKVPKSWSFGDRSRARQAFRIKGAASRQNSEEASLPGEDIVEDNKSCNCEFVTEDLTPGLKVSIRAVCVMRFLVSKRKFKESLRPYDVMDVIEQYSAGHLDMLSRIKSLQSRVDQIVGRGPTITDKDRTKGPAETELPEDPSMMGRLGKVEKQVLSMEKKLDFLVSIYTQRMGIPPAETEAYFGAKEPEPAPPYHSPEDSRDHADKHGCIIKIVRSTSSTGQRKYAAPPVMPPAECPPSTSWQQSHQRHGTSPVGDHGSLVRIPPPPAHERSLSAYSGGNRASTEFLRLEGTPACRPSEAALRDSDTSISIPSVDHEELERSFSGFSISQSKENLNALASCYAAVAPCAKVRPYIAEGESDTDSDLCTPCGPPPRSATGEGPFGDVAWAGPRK
# KCNQ2 pot baseline: further read-out of KCNQ2 pot, marked with its call; B-score; compound at 10 µM; measured here: initial fluorescence intensity artifact check;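 brightness before thallium and not channel activity; 0 = typical well and far values either way flag optical interference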
# Active calls of the source: *. These rows are one share of the data, so the mix of outcomes need not match the whole.
SMILES,KCNQ2 pot,KCNQ2 pot baseline
CCC(=O)Nc1sc(C(=O)N2CCCCC2)c(C)c1C#N,1.2,-1.8
COc1ccc(CN(Cc2ccc(C(=O)O)cc2)C(=S)Nc2cc(C)cc(C)c2)cc1OC,1.5,-1.1
Cc1c(CCC(=O)O)c(=O)oc2c(C)c3occ(-c4ccc(Cl)cc4)c3cc12,2.3,-0.03
COc1ccc2c(/C=N/NS(=O)(=O)c3ccc(C)cc3)c[nH]c2c1,1.4,0.01
CCC(C)(NC(=O)c1ccccn1)C(=O)NC1CCCC1 (stereo not given),0.95,-0.09
Cc1ccc(C(=O)NCC(=O)OCC(=O)NCCNC(=O)COC(=O)CNC(=O)c2ccc(C)cc2)cc1,0.78,1.4
O=C(/C=C/c1ccco1)Nc1ccc(C(=O)N2CCOCC2)cc1,0.31,1.1
Cc1nc(CN(C)Cc2nc(Cc3ccccc3Cl)no2)cs1,0.16,0.95
COc1cc(NC(=O)NCc2ccncc2)cc(OC)c1OC,0.19,1.2
O=C(O)c1cc(S(=O)(=O)O)cc(Nc2c3ccccc3nc3ccccc23)c1O,0.98,-0.22
CC(=O)c1cccc(NC(=O)COC(=O)c2ccc(S(C)(=O)=O)c([N+](=O)[O-])c2)c1,0.67,-1.3
Cc1ccc(N2CCN(S(=O)(=O)c3ccc4oc(=O)ccc4c3)CC2)c(C)c1,1.8,0.02
O=C(NCCC1=CCCCC1)c1cc(S(=O)(=O)N2CCOCC2)c(Cl)cc1Cl,0.02,-0.06
Cc1[nH]nc2c1C(c1ccc(F)cc1)C1=C(CC(C)(C)CC1=O)N2 (stereo not given),1.6,-2.5
CCOC(=O)C1CCCN(C(=O)CCCn2nnnc2CN2CCOCC2)C1 (stereo not given),0.01,1.2
Cc1ccc(C2(C)NC(=O)N(CC(=O)Nc3ccccc3C(=O)NC3CCCC3)C2=O)cc1 (stereo not given),0.48,-0.7
Cc1nc(N2CCOCC2)[nH]c(=O)c1[N+](=O)[O-],2.4,0.79
COc1ccccc1C(=O)NNC(=O)c1ccc2ccccc2c1,0.33,-0.74
N/C(=N\OC(=O)CC1CCCCC1)c1cccc(Br)c1,7.8*,2.5*
COc1cc(/C=c2\sc3n(c2=O)CCCN=3)ccc1O,0.7,1.4
CC1CC(C)CN(C(=O)Cc2c(C(=O)O)[nH]c3ccc(Cl)cc23)C1 (stereo not given),0.04,-2.8
O=C(Nc1cc(-c2ccccc2)[nH]n1)c1ccccc1,0.51,-0.02
COCC(=O)N1CCC(Oc2ccc(C(=O)NCc3cnc(C)cn3)cc2)CC1,0.94,1.6
CSc1ccc(CN(C)CC(=O)NC(=O)NC(C)(C)C)cc1,0.64,-2
Cc1nc(-c2coc3cc(O)c(C)cc3c2=O)cs1,0.05,0.43
Cc1ccc(C(=O)NNC(=O)C2CCN(S(=O)(=O)c3ccc(C)cc3)CC2)cc1,0.46,-0.45
COc1cc2c(cc1OC)CN(C(=O)/C=C/c1cc(OC)c(OC)c(OC)c1)CC2,0.78,1.4
COc1ccc(-n2ncc3c(=O)n(CC(=O)NC(C)C)cnc32)cc1,0.88,0.45
Nc1ccc(C(=O)OCC(=O)Nc2ccc([N+](=O)[O-])cc2C(F)(F)F)cc1,0.41,-1.2
Cc1ccc(S(=O)(=O)NCc2ccc(C(=O)NCCCN3CCN(C)CC3)cc2)cc1,0.25,-2
CSc1nc2sc3c(c2c(=O)[nH]1)CCC(C)C3 (stereo not given),2.5,-1.2
Cn1c(N)c(C(=O)CNC2CCCCC2)c(=O)n(C)c1=O,0.4,-2
CCOC(=O)N1CCN(C(=O)CNS(=O)(=O)c2c(C)cc(C)cc2C)CC1,1.4,0.23
O=C(NCCN1CCCC1)c1ccccc1Cl,0.04,-0.24
Cc1ccc(S(=O)(=O)NC(C(=O)Oc2ccc3c(C(F)(F)F)cc(=O)oc3c2)c2ccccc2)cc1 (stereo not given),0.16,0.1
Cn1nnc(NC(=S)NC(=O)c2ccccc2)n1,0.01,-1.6
COc1ccc(/C=N\Nc2ccccc2[N+](=O)[O-])c(C(=O)O)c1OC,0.78,-0.89
CC(C)NC(=O)C(=O)NCCC1CCCCN1S(=O)(=O)c1cccs1 (stereo not given),0.6,-1.1
COc1ccc(C(=O)N2CCC(NC(=O)C(Cc3ccccc3OC)NC(C)=O)CC2)cc1 (stereo not given),0.41,-1.5
CC1CC2(CCCC2)N(C(=O)N(C)C)c2ccc(F)cc21 (stereo not given),0.15,-0.67
COc1cc(/C=N/n2cnnc2)ccc1OCc1ccccc1,0.5,-2.5
CC(CCc1ccccc1)NC(=O)c1ccccc1C(=O)O (stereo not given),0.74,-0.29
Cc1nc2cc(C(=O)OCC(=O)Nc3ccc(C#N)cc3)ccc2n1-c1ccccc1,0.58,1.2
CNC(=O)CN(Cc1ccccc1)S(=O)(=O)c1ccccc1,0.75,-0.05
Cc1ccc(CNC(=O)c2nccnc2C(=O)O)cc1,1.2,-0.52

# Record cards (already shown):
# CSc1nc2sc3c(c2c(=O)[nH]1)CCC(C)C3 (stereo not given) as listed: KCNQ2 pot = 2.5; KCNQ2 pot baseline = -1.2
# CC1CC2(CCCC2)N(C(=O)N(C)C)c2ccc(F)cc21 (stereo not given) as listed: KCNQ2 pot = 0.15; KCNQ2 pot baseline = -0.67
# Cc1ccc(CNC(=O)c2nccnc2C(=O)O)cc1 as listed: KCNQ2 pot = 1.2; KCNQ2 pot baseline = -0.52

# Further compounds.
SMILES,KCNQ2 pot,KCNQ2 pot baseline
OCCNCc1cccc(OCc2ccc(Cl)cc2)c1,0.57,-0.32
CCCCc1ccc(NC(=O)C(=O)NCCN2CCN(C(=O)c3ccc([N+](=O)[O-])cc3)CC2)cc1,2,-1.3
O=C(N/N=C/C(Br)=C/c1ccccc1)c1ccccc1[N+](=O)[O-],1.1,0.31
CCOC(=O)c1sc(=NC(=O)c2ccc(S(=O)(=O)N3CC(C)OC(C)C3)cc2)n(C)c1C (stereo not given),0.29,0.61
CCN(CC)CCOC(=O)C1(c2ccc(OC)c(OC)c2)CCCC1,2.6,1.9
Cc1ccc(C(=O)CC2(O)C(=O)N(Cc3ccccc3Cl)c3ccccc32)o1 (stereo not given),0.98,0.08
S=C(Nc1ccc(Cl)cc1)NC1CCN(Cc2ccccc2)CC1,0.42,1.6
CCOC(=O)Cn1c(C)nc2ccccc21,1,-1.4
Cc1ccc(/C=N/n2c(-c3ccco3)n[nH]c2=S)cc1,0.02,2.8
O=C(CSc1nc(-c2cccs2)cc(C(F)(F)F)n1)NCCCn1ccnc1,0.01,0.38
Cc1ccc(-c2nnn(CC(=O)N(CC(=O)NC3CCCC3)c3ccc(F)cc3)n2)o1,0.12,1.4
c1coc(-c2nnc(SCc3nc4ccccc4[nH]3)o2)c1,0.84,1.8
O=C(Cc1cccs1)Nc1nnc(SCc2ccc(Br)cc2)s1,0.69,-1.1
Nn1c(SCc2cn3ccsc3n2)nnc1-c1ccncc1,0.3,1.8
COc1cccc(C(c2c(N)[nH]c(=S)[nH]c2=O)c2c(N)[nH]c(=S)[nH]c2=O)c1,0.67,-1
COc1cc(C(F)(F)F)c(C(=O)N(C)c2ccc(Cl)cc2)cn1,1.8,-1.3
CCOc1ccccc1NC(=S)/C(=C(\[O-])c1ccc2c(c1)OCCO2)[n+]1ccc(CC)cc1,0.22,-0.1
NC(=O)COC(=O)CCCc1c[nH]c2ccccc12,1.3,-2
Oc1ccc(Nc2nc(Cl)nc(NCc3ccco3)n2)cc1,0.37,-0.96
O=[n+]1c2c(n([O-])c3cc(Br)ccc31)CCCC2,1.7,-2.9
CCS(=O)(=O)c1ccc(O)c(NC(=O)COc2ccc(C)cc2)c1,0.89,0.81
O=C(NCc1ccccc1)c1nc2c(nnn2Cc2cccc(Cl)c2)c(=O)[nH]1,0.18,0.06
CCOC(=O)Nc1sc2c(c1C#N)CCCC2,0.67,1.1
O=C(O)/C=C/c1ccccc1Oc1ccccc1,1.9,-0.39
C=CCn1nnnc1SCC(=O)Nc1ccc(OC)cc1,0.18,-0.84
COc1cccc(-c2nc3sc4c(c3c(=O)[nH]2)CCCCC4)c1,0.25,-1.4
O=C(CN1CCN(c2ccc(O)cc2)CC1)Nc1ccc(-c2ccccc2)cc1,1.6,0.66
CCOCCCNC(=O)C(NC(=O)c1ccccn1)c1ccc(C)cc1 (stereo not given),0.92,0.75
COC(=O)[C@@]1(Cc2ccc(OC)cc2)[C@@H]2[C@@H](CC(=O)[C@H]2CC(=O)C(=O)N(C)C)CN1C(=O)c1ccccc1,0.03,-0.01
O=C(NCCc1cn2ccccc2n1)c1ccc(Br)o1,0.91,0.1

# Some of the entries so far, as tab-separated lines.
molecule	KCNQ2 pot	KCNQ2 pot baseline
O=[n+]1c2c(n([O-])c3cc(Br)ccc31)CCCC2	1.7	-2.9
CCS(=O)(=O)c1ccc(O)c(NC(=O)COc2ccc(C)cc2)c1	0.89	0.81
O=C(NCc1ccccc1)c1nc2c(nnn2Cc2cccc(Cl)c2)c(=O)[nH]1	0.18	0.06
CCOC(=O)Nc1sc2c(c1C#N)CCCC2	0.67	1.1
O=C(O)/C=C/c1ccccc1Oc1ccccc1	1.9	-0.39
C=CCn1nnnc1SCC(=O)Nc1ccc(OC)cc1	0.18	-0.84

# Later entries
SMILES,KCNQ2 pot,KCNQ2 pot baseline
NC(=O)c1c(NC(=O)CSc2nc3c(c(C(F)(F)F)n2)CCc2ccccc2-3)sc2c1CCCC2,0.92,-1.6
O=C(Cn1cncn1)N/N=C/c1cccc2ccccc12,1.9,0.07
COC(=O)C(NC(=O)c1ccc(OC)cc1)(Nc1ncc(S(=O)(=O)c2ccc([N+](=O)[O-])cc2)s1)C(F)(F)F (stereo not given),0.98,0.27
CCOC(=O)N1CCC(NC(=O)c2cc3ccccn3n2)CC1,1.9,-0.55
C=Cn1cc[n+](CC(=O)c2ccc(Cl)cc2)c1,1.1,0.57
O=C(Nc1ccc(F)cc1)c1ccccc1NS(=O)(=O)N1CCCC1,0.02,0.2
CC1(C(=O)NNC(=S)NCc2ccco2)CC1(Cl)Cl (stereo not given),1.1,0
CCc1c(C)sc2nc(C(C)C)nc(SCC(=O)N3CCc4ccccc4C3)c12,4.1,-1.2
Cc1ccc(C)n1-c1ccc(-n2cnnn2)cc1,0.93,0.88
CC(C)OCCCNC(=O)c1ccc(C2SCC(=O)N2Cc2ccco2)cc1 (stereo not given),0.4,-0.36
Cc1ccccc1-n1nc2c(c1NC(=O)CCCl)CSC2,0.98,-2.2
CCC(NC(=O)c1cc(COc2c(F)cccc2F)on1)c1ccncc1 (stereo not given),2.3,-0.31
NC(=O)CSc1nnc(-c2cnccn2)n1-c1ccccc1,0.26,1.3
COc1ccc(N2C(=O)/C(=C/c3cccnc3)NC2=S)cc1,1.1,-0.12
CC(C)C(=O)Nc1nnc(SCC(=O)N2c3ccccc3CC2C)s1 (stereo not given),0.88,0.67
O=C(COc1ccccc1Br)NC1CC1,0.56,0.47
Brc1ccc(OCc2ccccc2)c(CNCC2CCCO2)c1 (stereo not given),1.1,2.8
COc1cccc(CC2(CO)CCCN(Cc3cn(C)c4ccccc34)C2)c1 (stereo not given),0.75,-0.19
CCN(c1ccccc1)S(=O)(=O)c1ccc(NC(=O)c2ccco2)cc1,0.86,0
C=CCOc1ccccc1CNCc1ccc(F)cc1,0.64,0.38
N#CCn1c(CN2CCCC2)nc2ccccc2c1=O,0.45,-1.6
Cc1cccc(C(CC(=O)O)NC(=O)C(F)(F)F)c1 (stereo not given),0.77,-0.61
Cc1nc(NCc2cccnc2)c2c3c(sc2n1)CCCC3,0.7,-0.06
CC(C)CCNc1nc(N)c([N+](=O)[O-])c(NCC2CCCO2)n1 (stereo not given),1.6,0.33
CC(C)Sc1ncnc2c1oc1ccccc12,0.27,-2
CC1CN(C2CCN(C(=O)c3ccccc3Cl)CC2)CC(C)O1 (stereo not given),0.81,-0.75
O=C1N=C(N2CCCC2C(=O)O)S/C1=C\c1ccco1 (stereo not given),0.98,0.24
CN(C)c1ccc(C(C#N)c2ccc(Cl)cc2)nn1 (stereo not given),1,-2
COc1ccc(N(CC(=O)NN=C2CCN(C)CC2)S(=O)(=O)c2ccccc2)c(OC)c1,0.65,-1.2
Cc1cc(/C=N/n2cnnc2)c(C)n1-c1cc(Cl)ccc1Cl,1.6,-2.7
CCC(=O)c1ccc(OCC(=O)N2CCN(c3ccccn3)CC2)cc1,0.86,-1.2
Cc1ccccc1-n1c(SCc2c(C)noc2C)nnc1-c1ccncc1,1.8,-1.2
C=CCC(c1ccccc1)N(C(C)=O)c1ccco1 (stereo not given),0.01,-2.1
O=C(Nc1ccccc1)c1cc([N+](=O)[O-])ccc1Cl,0.79,0.38
CC12CS(=O)(=O)CC1SC(=S)N2c1ccccn1 (stereo not given),0.78,-0.97
COC(=O)C1(C)NC(c2ccc(Cl)cc2)C2C(=O)N(c3ccccc3)C(=O)C21 (stereo not given),0.03,-1.1
CCOC(=O)Cc1csc(NC(=S)NC(=O)c2ccccc2C)n1,5,-0.81
CC(C)S(=O)(=O)c1csc(NC(=O)Nc2ccc(Cl)cc2)c1,0.86,0.12
Cc1cc(NC(=O)C(C)Sc2nc(-c3ccccc3)cc(=O)[nH]2)no1 (stereo not given),1.5,1.1
Cn1c(=S)[nH]c2cccnc21,1.2,0.65
Cc1cc(C)n(C(=O)CN2C(=O)c3ccccc3C2=O)n1,0.02,0.35
CCCCCC(=O)Nc1ccc(S(=O)(=O)Nc2cc(OC)nc(OC)n2)cc1,0.86,-0.26
